Vaccinia Venus: inhibitors of vaccinia virus (Venus reporter); Vaccinia virus Venus reporter expression, fluorescence; Potency, µM (doses to about 36.5 µM), for inactives: at the highest dose activity change, negative = inhibition, actives largely listed as inhibitors; hit rate 0.46% among 330,000; active means well fitted inhibition curve with a large enough effect; inconclusive means small, poorly fitted or top-dose-only effect; inactive means no such curve, though single readings can be large or run the other way; tested in A549 cells; further: nearly all actives have a fitted effect of over 30% in size; inactives centre near -10
Vaccinia mCherry: inhibitors of vaccinia virus infection (mCherry reporter signal). Vaccinia virus mCherry reporter infection, fluorescence; about a quarter of the inactives have no number. Potency, µM (doses to about 36.5 µM), for the others: top-dose activity change, negative = inhibition, usual class: inhibitors. hit rate 0.63% among 310,000; active = well fitted inhibition curve with a large enough effect; inconclusive = small, poorly fitted or top-dose-only effect; inactive = no such curve, though single readings can be large or run the other way; tested in A549 cells; further: nearly all actives have a fitted effect of over 35% in size; inactives centre near -10
Active calls of the source: *; & = joins results of further samples; [ ] = another dose, or the depositor's remark. On the % scale 0 is the no-effect control and ±100 the full control effect; potency means the concentration at half of the fitted maximal effect.

`O=C(Nc1ccc(C(F)(F)F)cc1)c1ccc2nc[nH]c2c1` gave Vaccinia Venus -7% and Vaccinia mCherry inactive.
Screening Cc1ccc(CS(=O)(=O)Cc2ccc(C(=O)NCc3cccs3)o2)cc1 returned Vaccinia Venus -3% and Vaccinia mCherry 0%.
For Nc1ccccc1-[n+]1c(-c2ccccc2)cc(-c2ccccc2)cc1-c1ccccc1 the results were Vaccinia Venus -17% and Vaccinia mCherry -25%.
`COc1cccc(/C=C/c2ccc3cccc(O)c3n2)c1OC` gave Vaccinia Venus inconclusive and Vaccinia mCherry inconclusive.
`Cc1nn(C(=O)c2ccc(Cl)cc2)c(C)c1S(=O)(=O)N1CCCCCC1` gave Vaccinia Venus -4% and Vaccinia mCherry 7%.
`Cc1cccc(C)c1-n1ncc(C(=O)NC2CCCC2)c1C1CCNCC1` gave Vaccinia Venus 3%[7.34 µM] and Vaccinia mCherry 0%[7.34 µM].
COCc1cccc(NC(=O)CCc2ccccc2)c1 was read as Vaccinia Venus -6% and Vaccinia mCherry inactive.
Screening COc1ccc(-c2csc(N(CCCN3CCOCC3)C(=O)CCl)n2)cc1 returned Vaccinia Venus -7% and Vaccinia mCherry -10%.
`CCCCCC(=O)N1C[C@@H](O)[C@H](n2cc(-c3ccc(F)cc3)nn2)C[C@@H]1c1ccc(C)cc1` gave Vaccinia Venus -29% and Vaccinia mCherry -12%.
`O=C1c2ccccc2C(O)N1CCN1CCOCC1` (stereo not drawn) gave Vaccinia Venus -7% and Vaccinia mCherry inactive.
CN(C)c1nc(=NCc2ccco2)ss1 was read as Vaccinia Venus -14% and Vaccinia mCherry -14%.
`COc1cccc(/C=N/NC(=O)c2c(C)nc3ccc(Br)cn23)c1` gave Vaccinia Venus -9% and Vaccinia mCherry inactive.
COC(=O)c1cc(C#N)c(OC(C)C)nc1C was read as Vaccinia Venus -20% and Vaccinia mCherry -1%.
Screening NC(CSC1(c2ccc(F)cc2)c2ccccc2-c2ccccc21)C(=O)O (stereo not drawn) returned Vaccinia Venus -13% and Vaccinia mCherry inactive.
C[C@H](NC(=O)c1nc[nH]c1C(=O)N1CCN(c2ccccc2)CC1)C(=O)OCc1ccccc1 was read as Vaccinia Venus -8% and Vaccinia mCherry -20%.
For Cc1cccc(C)c1NC(=O)C1(C)CN(S(C)(=O)=O)CC(=O)N1Cc1ccc2c(c1)OCO2 (stereo not drawn) the results were Vaccinia Venus -19% and Vaccinia mCherry -15%.
Cc1cn2c(=O)cc(COC(=O)c3cccc(NC(=O)COc4ccc(Cl)cc4)c3)nc2s1 was read as Vaccinia Venus -15% and Vaccinia mCherry -15%.
For COCC1CCCN(Cc2ccc3c(c2)CN(C(=O)c2cn4ccc(C)cc4n2)CCO3)C1 (stereo not drawn) the results were Vaccinia Venus -1% and Vaccinia mCherry -8%.
For O=C(Nc1cccc(Cl)c1)C1CCN(S(=O)(=O)Cc2ccccc2)CC1 the results were Vaccinia Venus -1% and Vaccinia mCherry 13%.
For C[C@@H]1CC[C@]2(O[C@@H](CCO)C[C@@H](O)[C@@H]2O)O1 the results were Vaccinia Venus 6% and Vaccinia mCherry -9%.

Retrieved one by one from above, 6 records:
For O=C(Nc1cccc(Cl)c1)C1CCN(S(=O)(=O)Cc2ccccc2)CC1 the results were Vaccinia Venus -1% and Vaccinia mCherry 13%.
For C[C@@H]1CC[C@]2(O[C@@H](CCO)C[C@@H](O)[C@@H]2O)O1 the results were Vaccinia Venus 6% and Vaccinia mCherry -9%.
COC(=O)c1cc(C#N)c(OC(C)C)nc1C was read as Vaccinia Venus -20% and Vaccinia mCherry -1%.
C[C@H](NC(=O)c1nc[nH]c1C(=O)N1CCN(c2ccccc2)CC1)C(=O)OCc1ccccc1 was read as Vaccinia Venus -8% and Vaccinia mCherry -20%.
For Cc1cccc(C)c1NC(=O)C1(C)CN(S(C)(=O)=O)CC(=O)N1Cc1ccc2c(c1)OCO2 (stereo not drawn) the results were Vaccinia Venus -19% and Vaccinia mCherry -15%.
For COCC1CCCN(Cc2ccc3c(c2)CN(C(=O)c2cn4ccc(C)cc4n2)CCO3)C1 (stereo not drawn) the results were Vaccinia Venus -1% and Vaccinia mCherry -8%.

Next records follow.
Screening CCCCOC(=O)C1CCCC(C)N1 (stereo not drawn) returned Vaccinia Venus -5% and Vaccinia mCherry -11%.
`COc1ccc(N2CC(C)Cn3c2nc2c3c(=O)n(Cc3ccc(C)cc3)c(=O)n2C)c(OC)c1` (stereo not drawn) gave Vaccinia Venus 13% and Vaccinia mCherry -8%.
`Cc1cccc(C)c1NC(=O)CSCC(=O)O` gave Vaccinia Venus -7%.
COc1ccccc1C(=O)COC(=O)CCN=C1NS(=O)(=O)c2ccccc21 was read as Vaccinia Venus -4% and Vaccinia mCherry -14%.
`O=C(NNC(=O)c1ccc(F)cc1F)c1ccc2c(c1)OCO2` gave Vaccinia Venus -5% and Vaccinia mCherry inactive.
Cc1cc(OC(=O)c2cc(C(F)(F)F)cc(C(F)(F)F)c2)c([N+](=O)[O-])c(=O)[nH]1 was read as Vaccinia Venus -10% and Vaccinia mCherry -23%.
For O=C(Nc1nnc([C@@H]2C[C@H](O)[C@@H](CO)O2)s1)c1cccc(C(F)(F)F)c1 the results were Vaccinia Venus -9% and Vaccinia mCherry 28%.
`COCC(C)Nc1nc(C)c(C(C)=O)s1` (stereo not drawn) gave Vaccinia Venus -5% and Vaccinia mCherry -22%.
`C=C(C)C1Cc2c(ccc3c2OC2COc4cc(OC)c(OC)cc4C2C3=O)O1` (stereo not drawn) gave Vaccinia Venus -17% and Vaccinia mCherry -28%.
`CC1Nc2ncnc(N3CCc4ccccc4C3)c2N(Cc2ccc(Cl)cc2)C1=O` (stereo not drawn) gave Vaccinia Venus -18% and Vaccinia mCherry -18%.
CC(C)CCN1C(=O)c2ccccc2CC1(C)C(=O)NC1CCC(C)CC1 (stereo not drawn) was read as Vaccinia Venus -6% and Vaccinia mCherry 0%.
For Cc1ccc(NC(=O)COc2ccccc2C(=O)Nc2ccccc2)cc1 the results were Vaccinia Venus -26% and Vaccinia mCherry inactive.
COc1ccc(NC(=O)C2c3ccccc3OCC(=O)N2Cc2ccco2)cc1 (stereo not drawn) was read as Vaccinia Venus 1% and Vaccinia mCherry 16%.
C(=N/Nc1nccs1)/c1cccnc1 was read as Vaccinia Venus -9% and Vaccinia mCherry -20%.
COc1cccc(OC)c1NC(=O)Cn1nc(C)c2ccccc2c1=O was read as Vaccinia Venus -14% and Vaccinia mCherry 0%.
Screening CN1CCN(c2ccc(NC(=O)COc3ccccc3[N+](=O)[O-])cc2)CC1 returned Vaccinia Venus -6% and Vaccinia mCherry -6%.
Screening CCN(CC)c1ncnc2c1cnn2-c1cc(Cl)ccc1C returned Vaccinia Venus -5% and Vaccinia mCherry -11%.
O=c1c2c3nc4ccccc4nc3n(/N=C/c3ccco3)c2ncn1CCC1=CCCCC1 was read as Vaccinia Venus -21% and Vaccinia mCherry -22%.
`CCOc1ccc(OCC(=O)Nc2cccc(S(=O)(=O)NC3=NCCC3)c2)cc1` gave Vaccinia Venus -26% and Vaccinia mCherry -4%.
CSc1ccc(CCNC(=O)NCc2noc3ccccc23)cc1 was read as Vaccinia Venus -9% and Vaccinia mCherry -4%.
CCc1cc(=O)oc2c3c(cc(OCC(=O)N[C@H](C(=O)O)[C@H](C)CC)c12)OC(C)(C)CC3 was read as Vaccinia Venus -19% and Vaccinia mCherry -1%.
`C[C@]12c3[nH]c4ccc(Cl)cc4c3CCN1C(=O)[C@@H](CC(=O)NCCC1=CCCCC1)C[C@@H]2C(=O)N1CCOCC1` gave Vaccinia Venus inconclusive and Vaccinia mCherry inconclusive.
For O=C1c2[nH]nc(-c3ccc(Br)cc3)c2C(c2cccc(O)c2)N1c1ccc(Cl)cc1 (stereo not drawn) the results were Vaccinia Venus inconclusive and Vaccinia mCherry inconclusive.
`CCn1c(COc2ccc3c(c2)CCCC3)nnc1SCC(=O)Nc1ccc(C(=O)OC)cc1` gave Vaccinia Venus -10% and Vaccinia mCherry -9%.
O=C(Nc1cc(=O)[nH]c2nc(-c3ccccc3)nn12)c1ccc(Cl)cc1 was read as Vaccinia Venus 7% and Vaccinia mCherry -12%.
For CSC[C@H]1CN(CCc2ccccc2)C(=O)[C@@H]1CC(=O)Nc1ccc(Br)cc1 the results were Vaccinia Venus -12% and Vaccinia mCherry -2%.
CCOc1cccc(CNC(=O)c2ccc(N3CCCC3)c(NC(=O)NCc3ccc(F)cc3)c2)c1 was read as Vaccinia Venus -12% and Vaccinia mCherry -10%.
Screening CCc1ccc(NC(=O)CSc2nc3ccccc3c(=O)n2CCN2CCOCC2)cc1 returned Vaccinia Venus -13% and Vaccinia mCherry -25%.
CC1CCC(NC(=O)C2CCC(CNc3c(N4CCCCC4)c(=O)c3=O)CC2)CC1 (stereo not drawn) was read as Vaccinia Venus -19% and Vaccinia mCherry 10%.
`CCOc1cc(/C=N/n2cnnc2)ccc1OCC(=O)Nc1ccccc1OC` gave Vaccinia Venus -11%.
Screening COc1ccc(CCC(=O)N2CCCSC2=Nc2ccc(C(C)=O)cc2)cc1 returned Vaccinia Venus -16% and Vaccinia mCherry inactive.
For CC1CCCN(CCCCOc2cccc(Br)c2)C1 (stereo not drawn) the results were Vaccinia Venus -18% and Vaccinia mCherry -16%.
Screening CCOc1ccccc1NC(=O)c1cccnc1 returned Vaccinia Venus -11%.
Screening Cc1cccc(NS(=O)(=O)c2cc(OCC(N)=O)c(C)cc2Cl)c1 returned Vaccinia Venus -21% and Vaccinia mCherry -23%.
For CCC(c1nnnn1Cc1ccc(OC)cc1)N1CCN(C(=O)c2ccco2)CC1 (stereo not drawn) the results were Vaccinia Venus -5% and Vaccinia mCherry -8%.
For CCCCN1CC(=O)N2[C@H]3c4cc(C)ccc4OC[C@@H]3[C@H](c3ccccc3)[C@]2(C)C1=O the results were Vaccinia Venus -8% and Vaccinia mCherry -8%.
For COc1ccc(CNc2nc(N)nc3nc[nH]c23)cc1 the results were Vaccinia Venus -17%&-11% and Vaccinia mCherry -12%&-2%.
For CN(C)S(=O)(=O)c1ccc(C(=O)NCC(c2cccs2)N2CCOCC2)cc1 (stereo not drawn) the results were Vaccinia Venus -17% and Vaccinia mCherry -7%.
`O=C(NCC(c1ccco1)N1CCN(c2ccc(F)cc2)CC1)C(=O)NC1CCCCC1` (stereo not drawn) gave Vaccinia Venus 5% and Vaccinia mCherry -5%.
COc1ccc(CNC(=O)c2cnc3sc(N4CCCCCC4)nn3c2=O)cc1 was read as Vaccinia Venus -9% and Vaccinia mCherry -9%.
Screening Cc1ccc(NC(=O)N(Cc2cc3cc(C)cc(C)c3[nH]c2=O)CC2COCCO2)cc1 (stereo not drawn) returned Vaccinia Venus -9% and Vaccinia mCherry -2%.
COc1ccccc1N(Cc1ccccc1)S(=O)(=O)c1cc(C(=O)O)ccc1Cl was read as Vaccinia Venus -4% and Vaccinia mCherry -3%.
`COc1cccc(CN2CCN(Cc3cc(OC)c(OC)c(OC)c3)CC2)c1OC` gave Vaccinia Venus -13% and Vaccinia mCherry -13%.
CC(C)(C)OC(=O)Cn1c(=O)cnc2ccccc21 was read as Vaccinia Venus 7%.
`CC12CCC(C(=O)N(c3cccc(Cl)c3)C1=O)C2(C)C` (stereo not drawn) gave Vaccinia Venus 2% and Vaccinia mCherry -11%.
`O=C(OCc1ccc(F)cc1)c1ccc2c(c1)-c1ccccc1C2=O` gave Vaccinia Venus -19%.
COc1cccc(NC(=O)CN2C(=O)NC(C)(C3CC3)C2=O)c1 (stereo not drawn) was read as Vaccinia Venus -21% and Vaccinia mCherry -4%.
`O=C(C=Cc1ccco1)c1ccc2ccccc2c1` gave Vaccinia Venus 2% and Vaccinia mCherry inactive.
Cc1cccc(NC(=O)CSc2nc3ccc(NC(=O)COc4ccccc4C)cc3s2)c1 was read as Vaccinia Venus -20% and Vaccinia mCherry -26%.
`CCOc1ccc(NC(=O)Nc2cc(-c3ccccc3)sc2C(=O)OC)cc1` gave Vaccinia Venus -27% and Vaccinia mCherry -14%.
`O=c1[nH]c2ccccc2nc1Cc1ccc([N+](=O)[O-])cc1` gave Vaccinia Venus -12% and Vaccinia mCherry -26%.
Cc1onc(-c2ccccc2Cl)c1C(=O)NCc1nnnn1-c1ccc(F)cc1 was read as Vaccinia Venus -13% and Vaccinia mCherry -10%.
Screening CCN(CC(=O)Nc1c(F)cccc1F)C(=O)C1(c2ccccc2)CC1 returned Vaccinia Venus -14% and Vaccinia mCherry -17%.
For Cc1ccsc1/C=N/n1cnnc1 the results were Vaccinia Venus -25% and Vaccinia mCherry -1%.
For CCN(c1ccccc1)S(=O)(=O)c1ccc(Cl)c(NC(=O)CSc2nncn2C)c1 the results were Vaccinia Venus -6% and Vaccinia mCherry -14%.
`CC[N+]1(CC(O)COC2CC(C)CC(C)(C)C2)CCOCC1` (stereo not drawn) gave Vaccinia Venus -7% and Vaccinia mCherry -13%.
`Cc1ccc(-n2c(/C=C/c3cc(Br)cs3)nc3ccccc3c2=O)cc1C` gave Vaccinia Venus -15% and Vaccinia mCherry -17%.
COc1ccc(OC)c(NC(=O)C2CC(=O)N(c3ccc(Br)cc3)C2)c1 (stereo not drawn) was read as Vaccinia Venus -22% and Vaccinia mCherry inactive[1.46 µM].
`Clc1ccc(Cn2ccc(C3CC3)n2)cc1` gave Vaccinia Venus -6% and Vaccinia mCherry -15%.
For Cc1cc(C)c2[nH]c(=O)c(C(c3nnnn3Cc3ccc4c(c3)OCO4)N3CCCC3)cc2c1 (stereo not drawn) the results were Vaccinia Venus -14%.
Screening CCn1c(COc2ccccc2C(N)=O)nc2ccccc21 returned Vaccinia Venus -22%.

Copied from above (two entries):
`O=c1[nH]c2ccccc2nc1Cc1ccc([N+](=O)[O-])cc1` gave Vaccinia Venus -12% and Vaccinia mCherry -26%.
Cc1onc(-c2ccccc2Cl)c1C(=O)NCc1nnnn1-c1ccc(F)cc1 was read as Vaccinia Venus -13% and Vaccinia mCherry -10%.
